Screens from PubChem.
2A Renilla – Primary qHTS Assay for Foot and Mouth Disease Virus Antivirals against NCGC Sytravon and CBC Compound Libraries: Renilla Luciferase Signal. AID 1745857, 2022. 120,000 compounds, 0.32% hits. Potency, µM (top dose mostly 57.5 µM), for the others: top-dose signal change, negative = less light. HEK cells with a luciferase reporter of 2A StopGo recoding; active means well fitted falling curve with a large enough effect; inconclusive means small, poorly fitted or top-dose-only effect; inactive means no such curve, though single readings can be large or run the other way; note: nearly all actives have a fitted effect of over 55% in size; overnight with compound
StopGo FLuc – Primary qHTS Assay for Foot and Mouth Disease Virus Antivirals against NCGC Sytravon and CBC Compound Libraries: Firefly Luciferase Signal. 120,000 compounds, 0.23% hits. Potency, µM (top dose mostly 57.5 µM), for the others: at the top dose signal change, negative = less light. HEK cells with a luciferase reporter of 2A StopGo recoding; active = well fitted falling curve with a large enough effect; inconclusive = small, poorly fitted or top-dose-only effect; inactive = no such curve, though single readings can be large or run the other way; note: nearly all actives have a fitted effect of over 60% in size; overnight with compound
An asterisk follows results filed as active; u = inconclusive; [ ] = another dose, or the depositor's remark. % is set by controls: 0 for no effect and ±100 for the full control effect; potency is the fitted concentration of half-maximal effect. Some of the compounds tested (hit frequency here may not be typical).

1: CCn1cnc2c1c(=O)n(CC(=O)O)c(=O)n2Cc1ccccc1
2: CCN(CC)CCOC(=O)C(O)(c1ccccc1)c1ccccc1
3: COc1cccc(C(=O)Nc2ccc(NC(=O)c3ccc(C(C)(C)C)cc3)cc2)c1
4: Cc1ccc(N(Cc2nnc(-c3ccc(Cl)cc3)o2)S(=O)(=O)c2ccc3c(c2)OCCO3)cc1
5: Cc1c(C(=O)C(=O)Nc2cccc(F)c2)c2ccccc2n1C
6: CC(=O)N[C@@H](C(=O)O)C(C)C
7: O=C(COC(=O)c1c[nH]c2ccccc12)NC1CC1
8: Cc1cc(F)ccc1NC(=O)C1CCCN(c2nnc(-n3c(C)ccc3C)s2)C1 (centres undefined)
9: C#CCSc1nc(-c2ccccc2)cc(-c2ccccc2)c1C#N
10: Cc1ccc(N2N=C(c3ccccc3)CCC2=O)cc1

Screen / compound no.,1,2,3,4,5,6,7,8,9,10
2A Renilla,-7%,0%,-8%,146%[activator],55%[activator],1%,-2%,u,4%,-12%
StopGo FLuc,-3%,-15%[11.5 µM],1%,119%[activator],0%,-1%,33%[activator],u,-5%,-7%

11: Cc1ccc(/C=N/NC(=O)C2CC2)s1
12: COc1cc2cc(C(=O)N[C@@H](C)C(=O)Nc3ccc4c(c3)OCO4)n(C)c2c(OC)c1OC
13: Cc1ccc2c(C)c(C(=O)NCC(c3ccc(Cl)cc3)N3CCOCC3)oc2c1 (centres undefined)
14: CC(CCc1ccccc1)NC(=S)NC1CC2CCC1C2 (centres undefined)
15: COc1ccc(C(=O)Nc2cc3c(cc2N2CCCC2)n(C)c(=O)c(=O)n3C)cc1OC
16: Cn1c(=O)c2c(nc(SCC(=O)Nc3ccc(OC(F)(F)F)cc3)n2Cc2cccc(C(F)(F)F)c2)n(C)c1=O
17: O=C(NCc1ccccc1S(=O)(=O)N1CCOCC1)c1ccc(F)cc1
18: N#Cc1c(-c2ccccc2)cc(-c2cccs2)nc1S(=O)Cc1ccccc1 (centres undefined)
19: O=C(C1=C(c2ccccc2)S(=O)(=O)CCO1)N(Cc1ccccc1F)c1ccccn1
20: N#Cc1cc(-c2ccccc2)sc1N

Screen / compound no.,11,12,13,14,15,16,17,18,19,20
2A Renilla,14%,9%,-7%,81%[activator],-9%,-8%,1%,u,u,54%[activator]
StopGo FLuc,126%[activator],32%[activator],-17%,5%,-7%,-12%,-1%,u,u,197%[activator]

21: O=C(O)CNS(=O)(=O)c1cccc(C(=O)/C=C/c2ccc(Cl)cc2)c1
22: COc1ccc2nc(NC(=O)c3nc(SCc4ccc(F)cc4)ncc3Cl)sc2c1
23: CCOc1cccc2sc(N(Cc3cccnc3)C(C)=O)nc12
24: CCc1cccc(NC(=O)CN2C(=O)CCc3cc(S(=O)(=O)N4CCOCC4)ccc32)c1
25: Cc1cc(OCC(=O)Nc2ccccc2N2CCN(S(C)(=O)=O)CC2)ccc1Cl
26: CC1=C(c2ccc(C(C)C)cc2)S(=O)(=O)N=C1N1CCN(c2ccc(F)cc2)CC1
27: Cc1ccc(N(C(C)C(=O)NCc2ccccn2)S(C)(=O)=O)cc1C (centres undefined)
28: COc1ccc(-c2nn(-c3ccccc3)cc2C(=O)NCC(C(C)C)N2CCOCC2)cc1 (centres undefined)
29: COc1ccc(NC2=CC(=O)CC(c3ccc(OC)cc3)C2)cc1 (centres undefined)
30: O=C(CN1C(=O)c2cccnc2Sc2ccccc21)Nc1cc(F)ccc1F

Screen / compound no.,21,22,23,24,25,26,27,28,29,30
2A Renilla,9%,-7%,29%,3%,15%,-11%,-4%,13%,21%,38%[activator]
StopGo FLuc,0%,-13%,12%,-4%,21%,-19%,-8%,-8%,33%[activator],9%

Reformatted: entries from further up
no.	structure	2A Renilla	StopGo FLuc
17	O=C(NCc1ccccc1S(=O)(=O)N1CCOCC1)c1ccc(F)cc1	1%	-1%
18	N#Cc1c(-c2ccccc2)cc(-c2cccs2)nc1S(=O)Cc1ccccc1 (centres undefined)	u	u
19	O=C(C1=C(c2ccccc2)S(=O)(=O)CCO1)N(Cc1ccccc1F)c1ccccn1	u	u
20	N#Cc1cc(-c2ccccc2)sc1N	54%[activator]	197%[activator]
21	O=C(O)CNS(=O)(=O)c1cccc(C(=O)/C=C/c2ccc(Cl)cc2)c1	9%	0%
22	COc1ccc2nc(NC(=O)c3nc(SCc4ccc(F)cc4)ncc3Cl)sc2c1	-7%	-13%
23	CCOc1cccc2sc(N(Cc3cccnc3)C(C)=O)nc12	29%	12%
24	CCc1cccc(NC(=O)CN2C(=O)CCc3cc(S(=O)(=O)N4CCOCC4)ccc32)c1	3%	-4%
25	Cc1cc(OCC(=O)Nc2ccccc2N2CCN(S(C)(=O)=O)CC2)ccc1Cl	15%	21%
26	CC1=C(c2ccc(C(C)C)cc2)S(=O)(=O)N=C1N1CCN(c2ccc(F)cc2)CC1	-11%	-19%
27	Cc1ccc(N(C(C)C(=O)NCc2ccccn2)S(C)(=O)=O)cc1C (centres undefined)	-4%	-8%

Next part
31: CC(C)NC(=O)c1nn(C)c2c1CS(=O)(=O)c1ccccc1-2
32: O=C1CC2(C(=O)Nc3c(Cl)cccc32)c2cnn(Cc3ccccc3Cl)c2N1 (centres undefined)
33: O=C(CN1C(=O)CSc2ccc(S(=O)(=O)N3CCCC3)cc21)NCc1ccc(Cl)cc1
34: COc1ccc(-c2nc3ccccc3c(=O)n2CCOc2ccccc2OC)cc1
35: Cc1ccc(C(=O)NC2CC2)cc1NC(=O)CC1C=CCC1 (centres undefined)
36: COC(=O)Cc1c(C)c2ccc(OCc3ccccc3Cl)cc2oc1=O
37: Cc1ccc(-c2cc(C(=O)O)c3cccc(Cl)c3n2)s1
38: O=C(Cn1nc(C(=O)O)c2ccccc2c1=O)NC(c1ccccc1)c1ccccc1
39: COc1ccc(-c2noc(-c3ccc(N4CCN(c5ccccc5OC)CC4)c([N+](=O)[O-])c3)n2)cc1
40: CC1CCN(c2nc3c(S(=O)(=O)c4cccc(Cl)c4)nnn3c3ccsc23)CC1

Screen / compound no.,31,32,33,34,35,36,37,38,39,40
2A Renilla,5%,18%,25%,2%,-5%,24%,-10%,-2%,-15%,13%
StopGo FLuc,10%,-19%,-22%,12%,-7%,196%[activator],0%,-2%,-16%,-13%

41: CCn1c(Cc2ccc(OC)cc2)nnc1SCc1nc2ccccc2c(=O)[nH]1
42: Cc1ccc2c(CNCc3ccco3)cc(=O)oc2c1
43: CCn1cc(S(=O)(=O)c2cc(C)cc(C)c2)c(=O)c2cc(F)c(N3CCOCC3)cc21
44: O=C(Cc1ccccc1Cl)NCc1cccc(C(=O)Nc2ccccc2)c1
45: Cc1ccccc1-c1cc(C(=O)NC2CCCCCC2)c2cccc(Cl)c2n1
46: COc1ccc(-c2cc(C)no2)cc1S(=O)(=O)NCc1ccc(OC(C)C)cc1
47: Cc1ccc(N(CC(=O)NCCc2ccccc2)S(=O)(=O)N(C)C)cc1
48: CC(=O)N1CCc2cc(S(=O)(=O)CCC(=O)N3CCN(c4ccccc4F)CC3)ccc21
49: O=C(c1cc(N2CCCCC2)nc2ccccc12)N1CCOCC1
50: Cc1ccc(-c2cc(C(=O)N3CCN(CC(=O)N4CCOCC4)CC3)c3ccccc3n2)cc1

Screen / compound no.,41,42,43,44,45,46,47,48,49,50
2A Renilla,9%,u,169%[activator],26%,16%,88%[activator],9%,3%,36%[activator],44%[activator]
StopGo FLuc,-1%,-42%,-6%,13%,26%,-11%,6%,8%,9%,83%[activator]

51: COc1ccc(NC(=O)Cn2c(=O)oc3cc(S(=O)(=O)N4CCCCCC4)ccc32)cc1OC
52: CCOc1ccc(/C=C/c2nc(C#N)c(NCCCN3CCOCC3)o2)cc1
53: CCN(CC)c1ccc(NS(=O)(=O)c2ccc(C3CCCCC3)cc2)cc1C(=O)O
54: N#Cc1cccc(/C=C2\CSc3ccccc3C2=O)c1
55: O=c1cc(-c2ccccc2)nc(SCc2nc(-c3ccccc3Cl)no2)[nH]1
56: O=C(NCc1nc(-c2ccccc2)no1)c1ccco1
57: CCc1cccc(C)c1NC(=O)Cn1ccn(-c2ccc(OC)c(OC)c2)c(=O)c1=O
58: Cc1ccc(C(=O)C(OC(=O)c2ccco2)c2ccccc2)cc1C (centres undefined)
59: CCC(CC)NC(=O)Cn1nc(C)c2ccccc2c1=O
60: CCC(C)NC(=O)COCc1cc(-c2ccc3c(c2)OCO3)on1 (centres undefined)

Screen / compound no.,51,52,53,54,55,56,57,58,59,60
2A Renilla,-26%,-9%,20%,u,-14%,-9%,-2%,6%,4%,124%[activator]
StopGo FLuc,u,-2%,10%,u,-19%,3%,0%,10%,6%,89%[activator]

61: CC1=C(C(=O)Nc2ccccc2)C(c2ccc(C(=O)O)cc2)n2nc(SCC(=O)c3ccc(C)cc3)nc2N1 (centres undefined)
62: CCCCCCSc1nnc2c(n1)OC(C)Nc1ccc(Br)cc1-2 (centres undefined)
63: O=C(Nc1ccccc1Br)C1CC2CCC1C2 (centres undefined)
64: Cc1ccc(-c2onc(C)c2C)cc1S(=O)(=O)N1CCN(c2ccccc2F)CC1
65: CCCCNC(=O)[C@@H](c1ccccc1)N1Cc2ccccc2C1=O
66: CCCNC(=O)c1cccc(NC(=O)CCc2ccccc2)c1
67: CCC(=O)Oc1ccc2c(=O)c(Oc3cc(C)cc(C)c3)c(C(F)(F)F)oc2c1
68: O=C(Cn1c(NCc2ccccc2)nc2ccccc21)Nc1ccccc1
69: CCCSc1c(C(C)C)cnc2c1c(=O)n(C)c(=O)n2C
70: CN(C)Cc1nc(SCC(=O)Nc2ccc(F)cc2)c2ccccc2n1

Screen / compound no.,61,62,63,64,65,66,67,68,69,70
2A Renilla,-8%,2%,-1%,-12%,76%[activator],61%[activator],0%,-17%,-3%,-4%
StopGo FLuc,3%,-2%,38%[activator],-13%,-5%,38%[activator],u,10%,11%,-2%

71: CCC(C)NC(=O)CSc1nc(-c2ccco2)nc2ccccc12 (centres undefined)
72: CS(=O)(=O)N1CCCC(C(=O)Nc2ccccc2SC2CCCC2)C1 (centres undefined)
73: Cc1ccc(C(=O)COC(=O)c2ccc(N3CCCC3=O)cc2)cc1C
74: COc1cc(C#N)c(C(=O)c2ccc(C)cc2)cc1OC
75: CCn1c(SCC(=O)Nc2ccc(C)c(C)c2)nnc1-c1nonc1NC(C)=O
76: COc1ccccc1NC(=O)c1cc(S(=O)(=O)N2CCN(c3ccccc3Cl)CC2)ccc1F
77: COc1ccc2c(c1)Cc1sc(NC(=O)c3ccccc3Br)nc1-2
78: CN(CCCC#N)CC1COc2ccccc2O1 (centres undefined)
79: CC(=O)NC(C)C(=O)N1CCCC1C(=O)N1CCCC1C(=O)NC(C)C(=O)NC1C(=O)NC(CC(C)C)C(=O)NC2CCCCNC(=O)CCC(C(=O)NC(Cc3ccc(O)cc3)C(=O)O)NC(=O)C3CCC(=O)OCC(NC(=O)C4CCCN4C(=O)C(Cc4c[nH]c5ccccc45)NC2=O)C(=O)NC(CC(=O)OC1C)C(=O)NC(Cc1c[nH]c2ccccc12)C(=O)N3 (centres undefined)
80: COc1ccc(NC(=O)c2c(C)oc3ccc(O)c(CN4CCCCCC4)c23)cc1Cl

Screen / compound no.,71,72,73,74,75,76,77,78,79,80
2A Renilla,5%,4%,-6%,22%,-7%,-3%,4%,0%,3%,-3%
StopGo FLuc,11%,-4%,8%,-2%,0%,-9%,113%[activator],7%,6%,14%

81: COC(=O)c1ccc(-c2ccc(C(=O)O)cc2)cc1
82: CC(Oc1ccc(F)cc1)C(=O)N1CCN(Cc2nc(N)c3ccccc3n2)CC1 (centres undefined)
83: CC(C)(C)c1cc(C(=O)O)cc(C(C)(C)C)c1O
84: CC1CCN(C(=O)C(=O)N2CCN(c3nc(C(C)C)c4c(c3C#N)CCCC4)CC2)CC1
85: CC(=O)Nc1ccc(C)c(NC(=O)C2(c3cccc(Br)c3)CC2)c1
86: O=C(/C=C/c1ccc(O)cc1)c1ccc(-c2ccccc2)cc1
87: CCOC(=O)c1c(C)n(Cc2ccccc2Cl)c2ccc(O)cc12

Screen / compound no.,81,82,83,84,85,86,87
2A Renilla,0%,-16%,66%[activator],u,20%,28%,-2%
StopGo FLuc,62%[activator],-5%,3%,u,1%,10%,0%
